From PubChem
Mtb MbtI inh: blocks the Mycobacterium tuberculosis siderophore enzyme MbtI | P9WFX0 | purified MbtI enzyme, fluorescence intensity read-out | inhibition, %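 (about 17 µg/mL by stock and volumes)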 | 100,000 tested, 0.89% active | AID 493033;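 active = above 50% in both replicates, above 80% if mildly self-fluorescent; inactive = the rest, strongly fluorescent compounds included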;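 note: 0% = mean of negative and 100% = mean of positive controls; one replicate is shown; some compounds called inactive have numbers as strong as hits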
Mtb MenB inh: Mtb MenB enzyme inhibition | inhibition, %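 (about 12 µg/mL by stock and volumes)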 | 100,000 tested, 0.43% active | MenB enzyme assay, absorbance read-out; some hits fall short of the stated cut;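 active = mean of two replicates above 30%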;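 note: 0% = no compound and 100% = wells with inactive enzyme; the first replicate is given; strong numbers were not always called active; inactives centre near -10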
Target sequence (P9WNP5 whole entry, looked up): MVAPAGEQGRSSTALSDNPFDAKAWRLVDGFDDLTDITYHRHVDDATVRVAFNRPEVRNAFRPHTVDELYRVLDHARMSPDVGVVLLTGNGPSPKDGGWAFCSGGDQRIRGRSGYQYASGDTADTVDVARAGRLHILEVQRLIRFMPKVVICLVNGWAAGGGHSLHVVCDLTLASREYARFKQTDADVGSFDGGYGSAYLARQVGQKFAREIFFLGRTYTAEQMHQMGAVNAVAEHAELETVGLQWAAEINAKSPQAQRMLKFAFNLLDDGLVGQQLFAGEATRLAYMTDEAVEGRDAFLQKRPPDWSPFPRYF
Polio RdRp inh: inhibitors of poliovirus RNA polymerase binding and polymerization. 150,000 tested, 0.66% active. % elongation, % (compound at 16.7 µg/mL). AID 588519. poliovirus polymerase elongation, fluorescence polarization; active compounds read low; in the data active = % elongation below about 90%; note: some results filed as inactive read as strong as hits
Target sequence (P03300 1749-2209 limits assumed): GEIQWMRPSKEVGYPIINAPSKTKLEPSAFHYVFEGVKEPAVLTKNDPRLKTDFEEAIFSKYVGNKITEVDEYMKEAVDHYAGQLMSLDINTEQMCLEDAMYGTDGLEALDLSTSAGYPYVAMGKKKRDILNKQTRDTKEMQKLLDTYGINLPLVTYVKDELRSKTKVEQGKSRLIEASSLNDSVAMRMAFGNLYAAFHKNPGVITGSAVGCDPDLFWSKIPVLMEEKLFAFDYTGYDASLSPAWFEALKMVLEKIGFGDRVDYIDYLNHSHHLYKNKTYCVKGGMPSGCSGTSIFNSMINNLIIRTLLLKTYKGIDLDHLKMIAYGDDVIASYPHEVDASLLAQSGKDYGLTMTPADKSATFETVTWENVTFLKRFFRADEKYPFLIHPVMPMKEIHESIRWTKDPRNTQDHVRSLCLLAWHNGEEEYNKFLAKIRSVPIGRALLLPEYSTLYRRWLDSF
Polio RdRp inh intensity: second read-out of Polio RdRp inh, no call of its own (marks repeat the call); % elongation; measured here: total intensity read-out; formula for this scale not given here;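 total fluorescence in place of polarization; lower means less elongation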
An asterisk follows results filed as active; i = inactive; . = not tested or not shown; & = joins results of further samples.

SMILES	Mtb MbtI inh	Mtb MenB inh	Polio RdRp inh	Polio RdRp inh intensity
Cc1nn(-c2ccccc2)c(Cl)c1C(=O)NCc1ccco1	-18	.	102	106
Cc1cc(C)n(NC(=S)NCc2cccs2)c(=O)c1C#N	-4	-13	106	111
CCCC(=O)Nc1ccc2[nH]c(=O)[nH]c2c1	.	-21	106	110
Cc1nccn1-c1ccc(C(F)(F)F)cc1N	-6	.	101	94
NC(=S)Nc1ccc2c(c1)OCCO2	58	11	100	99
Cc1ccc(NC2=Nc3ccccc3SC2)cc1	-7	.	102	100
Cc1noc(C)c1C(=O)OCC(=O)Nc1ccc(SC(F)F)cc1	-2	0	.	.
O=C1CCCc2c1[nH]c1ccccc21	-167	-31	102	103
COc1ccc(CNC(=O)C2CC(=O)N(C(C)(C)C)C2)cc1 (stereo unspecified)	.	15	101	102
Cc1ccc2nc(COC(=O)C(NS(=O)(=O)c3ccc4c(c3)OCCO4)C(C)C)cc(=O)n2c1 (stereo unspecified)	1	-28	103	95
O=[n+]1cc(-c2ccco2)n([O-])c2c1CCCC2	5	-9	106	109
COc1ccc(S(=O)(=O)N2Cc3ccccc3CC2C(=O)N2CCOCC2)cc1OC (stereo unspecified)	2	-87	103	99
COc1cccc(NC(=S)N(C)C2CCN(C)CC2)c1	.	-17	104	108
O=C(Nc1ccccc1Cl)Nc1ccccc1Cl	.	-28	103	109
N/C(=N\NC(=O)Nc1ccccc1)c1ccc(C(F)(F)F)cn1	-6	-23	103	94
O=C(CSc1ncnc2c1nnn2Cc1ccc(F)cc1)NC1CCCC1	-1	-37	99	102
COc1ccc(NC(=O)N2CCc3ccccc3C2)cc1	3	2	98	100
CCOc1ccccc1CNC(=O)c1ccc2c(c1)N(C)CCS2	-61	1	102	99
CC(C)NC(=O)C1CC(c2ccccc2O)=NO1 (stereo unspecified)	-2	-33	106	101
COc1ccccc1-n1c(-c2ccncc2)n[nH]c1=S	17	-17	105	108
CCOc1ccc(CCN)cc1OCC	-4	.	101	96
CC(C)(C)c1ncc(C(=O)O)cn1	-4	-5	101	103
CC(C)c1cc(=O)n2[nH]cnc2n1	3	18	102	103
Cn1cnc(S(=O)(=O)N2CCN(c3ccccn3)CC2)c1	-5	-16	103	105
CCOC(=O)N1CCN(C(=O)CN(C2CCCCC2)S(=O)(=O)c2ccccc2)CC1	.	-20	104	102
CC(=O)N1CCC2(CC1)C/C(=N\NC(=S)Nc1ccc(C)cc1)c1cc(O)ccc1O2	-80	-106	103	102
CC(=O)Nc1ccc(Cl)cc1C(F)(F)F	-9	0	99	103
CN1C(=O)CC(c2cn(Cc3ccccc3)c3ccccc23)C1=O (stereo unspecified)	-15	-24	116	148
CCN(CC)CC(O)CN=C1NS(=O)(=O)c2ccccc21 (stereo unspecified)	-14	11	100	103
C/C(=N\OC(=O)c1ccc(Cl)cc1)c1ccc[nH]1	6	5	102	103
CN(C(=O)CSc1n[nH]c(=O)[nH]c1=O)c1ccccc1	-3	-3	102	108
Cc1ccc(C)c(NC(=O)CSCc2cnn(-c3ccccc3)c2-n2cccc2)c1	0	-3	101	102
O=C(O)C(C(=O)/C=C/c1ccccc1)=C1SCCS1	45	-242	97	105
C/C(=N\NC(=O)CN1C(=O)c2cccc3cccc1c23)C(C)(C)C	6	-7	101	102
Cc1ccc(Cl)cc1N1CCN(C(CC(=O)O)C(=O)c2ccc(F)cc2)CC1 (stereo unspecified)	7	31*	70*	74*
COc1ccc(-c2nnc(SCC(=O)Nc3cc(C(C)(C)C)nn3-c3ccccc3)o2)cc1	2	-5	102	105
NC(C(=O)O)C(c1ccc(O)cc1)C(F)F (stereo unspecified)	-9	-21	100	101
CCc1ccc(NC(=O)c2cc3ccccc3oc2=O)cc1	-2	-8	99	96
COC(=O)C1=C(C)NC(C)=C(C(=O)OC)C1C(=O)OCC(=O)c1cc(C)n(C2CC2)c1C	-10	-20	102	103
COC(=O)c1cc(NC(=O)c2ccco2)cc(C(=O)OC)c1	.	1	108	114
O=C(CSC1=NS(=O)(=O)c2ccccc21)Nc1ccc(Br)cc1	15	-50	101	103
CCOC(=O)c1nnn(-c2nonc2N)c1CN1CCSCC1	.	-12	106	105
CCc1ccccc1NC(=O)CCCn1sc2ccccc2c1=O	30	-9	104	107
Cc1cccc(OCCN)c1C	-4	-20	101	104
CCc1nnc(NS(=O)(=O)c2ccc(NC(=O)C(C)C)cc2)s1	14	12	99	100
COC(=O)c1cc(NC2=NS(=O)(=O)c3ccccc32)cc(C(=O)OC)c1	-8	1	100	98
COCCN(C(=O)Nc1ccc(OC)cc1OC)C1CCN(C(C)=O)CC1	-5	-21	98	95
CCOc1ccc(S(=O)(=O)NCC(=O)NC2CCCCC2)cc1	-1	-3	100	102
Cc1ccc(C(=O)COc2cc(C)nc3nncn23)cc1	-11	-26	105	107
Nc1ccc(OCCOc2ccc(N)cc2)cc1	.	-22	100	107
CCCN1CCC(NC(=O)Nc2ccc(OC)c(OC)c2)CC1	-4	1	101	101
COc1ccccc1C1=NN(C(=S)Nc2ccccc2)C(c2ccco2)C1 (stereo unspecified)	73*	-38	101	102
Cc1ccc(SCC(=O)N=C2NC(=O)CS2)cc1	12	-28	99	105
O=C(Nc1sc2c(c1C(=O)Nc1ccccc1)CCCC2)c1ccccc1	.	-16	97	95
O=C(NC1CCCC1)c1cc(=O)[nH]c2ccc(S(=O)(=O)N3CCCC3)cc12	-3	-9	102	105
Cc1[nH]c(=O)[nH]c(=O)c1S(=O)(=O)N1CCCCC1C (stereo unspecified)	-3	-9	100	107
Cc1cccc(NC(=S)NC(C)(C)C)c1	-5&-8	4&-33	101&104	103&100
Oc1ccccc1C=Nc1ccc2ncccc2c1	-33	6	98	104
O=C(CN1C(=O)C2CC=CCC2C1=O)OCc1cc(=O)n2c(n1)sc1ccccc12 (stereo unspecified)	-18	-3	101	100
CCCCc1c(O)nc(SCCC(=O)O)[nH]c1=O	13	-5	104	106

The results go on.
SMILES	Mtb MbtI inh	Mtb MenB inh	Polio RdRp inh	Polio RdRp inh intensity
CC1(C)CC(=O)C(C=NCC2CCN(C(=O)Nc3ccccc3)CC2)=C(O)C1	-4	-1	102	101
Cc1cc(C)n(NC(=S)NC2CCCCC2)c(=O)c1C#N	5	-9	103	100
CCc1ccc(-c2ncnn2-c2cccc(Cl)c2C)cc1	1	-1	104	105
Cc1cc(Oc2cc(C#N)c(C#N)cc2N2CCOCC2)cc(C)c1Cl	22	-2	100	102
COc1ccc(C)cc1-n1c(N)c(C#N)c(C#N)c1-c1ccc(OC)c(OC)c1OC	110	-8	101	109
CC(C)OC(=O)c1cc2ccc(O)cc2oc1=O	117	i	101	106
O=C(OCC(=O)N1CCCC1=O)c1n[nH]c2ccccc12	139	-33	.	.
CCc1ccc(NC(=O)Cc2ccc(NC3=NC4CS(=O)(=O)CC4S3)cc2)cc1 (stereo unspecified)	0	-1	101	104
Cc1cccc(C)c1OCC(=O)N=Nc1c(O)n(CN2CCN(C)CC2)c2ccc(Br)cc12	7	12	100	103
NS(=O)(=O)c1ccc(CCn2ccn(CC(=O)NCCC3=CCCCC3)c(=O)c2=O)cc1	-5	-29	105	108
Cc1ccc(NS(=O)(=O)c2ccc3c(c2)n(C)c(=O)n3C)cc1	7	-2	100	99
CNC(=O)C(Cc1ccccc1)N1C(=O)C2C3C=CC(C3)C2C1=O (stereo unspecified)	-4	-7	106	101
O=S1(=O)CCC(c2n[nH]c(=S)o2)C1 (stereo unspecified)	19	-27	103	105
C=C1CC23C[C@@H]4CN5C[C@]6(C)C[C@H](OC(C)=O)C[C@@]7(C2[C@H](O)[C@@H]1C(O)C3(O)C57)C46 (stereo partly specified)	-4	0	104	100
Cn1c2c(c3ccccc31)C(C)(C)NC(C)(C)C2	14	-1	104	102
Cc1cccc(/C=C2\Sc3ccc(C(=O)N4CCC(C)CC4)cc3N(C)C2=O)c1	5	-23	102	105
NS(=O)(=O)c1ccc(NC(=O)COC(=O)Cc2ccccc2)cc1	-10	-4	102	105
CC(C)(C)c1cc(CCC(=O)O)cc(C(C)(C)C)c1O	-10	-62	99	103
COc1cc(OC)c(NC(=O)N2CCC3(CC2)N=C(c2ccc(C)c(C)c2)C(=O)N3)cc1Cl	-5	7	99	102
COc1ccc(-c2cc(-c3ccc(Cl)c(Cl)c3)nc(N)c2C#N)cc1OC	.	-9	104	106
CCOC(=O)C1SC(C)=NC1=O (stereo unspecified)	88	-34	97	98
CC(C)=CCc1c(O)cc(O)c2c1OC(c1ccccc1)CC2=O (stereo unspecified)	-13	-80	101	101
CCOC(=O)C1CCN(C(=O)C(C)n2ncn3cccc3c2=O)CC1 (stereo unspecified)	-8	8	100	102
NS(=O)(=O)c1ccc(NC=C2C(=O)OC3(CCCCC3)OC2=O)cc1	-15	-12	102	99
COC(=O)c1cc(OC(=O)Cc2coc3cc(OC)ccc23)cc(C(=O)OC)c1	7	-13	101	111
Cc1ccc2c(CNC3CCCC3)c(C(=O)O)n(C)c2c1	-1	-3	102	108
O=C(CSc1cccc2cccnc12)Nc1cccc(C(F)(F)F)c1	.	-41	113	107
CCN(CC)P1(=S)N(c2ccccc2)N=C2C=C(C)c3ccccc3N21 (stereo unspecified)	91	-63	68*	76*
O=c1c2ccccc2[nH]c(=S)n1Cc1cccnc1	-3	-21	100	102
Cn1cc2ccc(N)cc2n1	i	-15	101	100

Quoted from the listing.
Cn1cc2ccc(N)cc2n1 in Polio RdRp inh intensity is entered as 100
O=C(CSc1cccc2cccnc12)Nc1cccc(C(F)(F)F)c1 in Polio RdRp inh is entered as 113
CCOC(=O)C1SC(C)=NC1=O (stereo unspecified) in Polio RdRp inh intensity is entered as 98
COC(=O)c1cc(OC(=O)Cc2coc3cc(OC)ccc23)cc(C(=O)OC)c1 in Mtb MbtI inh is entered as 7
Cc1cccc(/C=C2\Sc3ccc(C(=O)N4CCC(C)CC4)cc3N(C)C2=O)c1 in Mtb MenB inh is entered as -23

Fetched by structure from the list above (2):
SMILES	Mtb MbtI inh	Mtb MenB inh	Polio RdRp inh	Polio RdRp inh intensity
NS(=O)(=O)c1ccc(NC(=O)COC(=O)Cc2ccccc2)cc1	-10	-4	102	105
NS(=O)(=O)c1ccc(NC=C2C(=O)OC3(CCCCC3)OC2=O)cc1	-15	-12	102	99

Next section:
SMILES	Mtb MbtI inh	Mtb MenB inh	Polio RdRp inh	Polio RdRp inh intensity
COC(=O)C1C(=O)C2=C(CC1C)Nc1ccccc1NC2c1cc(F)ccc1F (stereo unspecified)	1	-25	101	102
CCc1ccc(NC(=O)c2sc3[nH]c(=O)c(C(=O)O)cc3c2N)cc1	12	-12	97	103
O=C(Cc1ccccc1)Oc1ccc(C2SCCS2)cc1	.	-19	104	108
CCC1=Nc2cc(C(=O)N3CCc4ccccc4C3)ccc2Sc2ccccc21	-8	-17	103	110
CCC(=O)Nc1ccccc1C(=O)NC(C)(C)C	-38	-8	101	103
O=C(Nc1ccc(Cl)cc1)Nc1cccc(-c2cn3cccnc3n2)c1	34	-6	103	106
Cc1ccc(Sc2c(C)[nH]n(C(C)(C)C)c2=O)cc1	-214	-16	104	104
CN(C)S(=O)(=O)c1ccc(C#N)cc1	.	-2	108	112
CCOC(=O)c1cc2c(=O)n3ccccc3nc2n(C(C)C)c1=NC(=O)c1c(-c2ccccc2Cl)noc1C	14	1	100	158
Nc1cccc(NC(=O)c2cccc(S(=O)(=O)Nc3cccc(N)c3)c2)c1	-6	-5	102	102
CN(C)c1ccc(NC(=O)COc2ccc(C#N)cc2)cc1	-5	.	102	105
Cc1ccc(NC2=NCCS2)c(C)c1	4	-11	100	95
CC(Sc1nncn1C(C)C)C(=O)c1c[nH]c2ccccc12 (stereo unspecified)	6	-31	110	110
O=c1c(Cl)c(N2CCCCC2)cnn1C12CC3CC(CC(C3)C1)C2	0	-48	103	103
Cc1nn(CCc2nc(C(C)(C)C)cs2)c2[nH]c(=O)cc(C(F)(F)F)c12	-17	.	96	99
CCn1c(C(NC(=O)c2ccc(C)cc2)C(C)C)n[nH]c1=S (stereo unspecified)	5	-38	100	102
Cn1c(=O)n(Cc2ccco2)c(=N)c2c3c(sc21)CCCC3	6	6	102	101
C[n+]1ccn(CC(=O)c2ccccc2)c1	-17	1	98	100
CC(C)OC(=O)c1cc(C(=O)c2cc(F)ccc2O)coc1=N	-35	-18	102	96
Cc1ccc(S(=O)(=O)NC(=O)SC#N)cc1	.	-13	98	104
O=S(=O)(Nn1cc(-c2ccccc2)[nH]c1=S)c1ccc2c(c1)OCCO2	-8	-21	99	97
CC(=O)Nn1c(=O)[nH]c2ccccc2c1=O	-310	-21	102	102
O=C(NC1CCCCC1)c1cccc(-n2c(=S)[nH]c3cc(Cl)ccc3c2=O)c1	-2	2	103	107
CC1(C)C=C(C(=O)N2CCOCC2)C(C)(C)N1	-7	-21	103	105
CCNC(=O)C(C)NC1CCN(C(C)C)CC1 (stereo unspecified)	-12	-7	94	98
CCOC(=O)c1c(-c2ccccc2)oc2ccc(OC(=O)Cc3n[nH]c(=O)c4ccccc34)cc12	i	9	102	103
CC1=C(c2ccccc2)[N+](=O)C2(CCCC2)N1[O-]	-218	-11	101	100
